VACV Venus inh – vaccinia inhibition (Venus reporter). Vaccinia virus Venus reporter expression, fluorescence. 0.46% of 330,000 active. Potency, µM (top dose mostly 36.5 µM), without a hit: top-dose activity change, negative = inhibition, hits mostly inhibitors; active means well fitted inhibition curve with a large enough effect; inconclusive means small, poorly fitted or top-dose-only effect; inactive means no such curve, though single readings can be large or run the other way; tested in A549 cells; also: nearly all actives have a fitted effect of over 30% in size; inactives centre near -10
VACV mCherry inh – inhibitors of vaccinia virus infection (mCherry reporter signal); Vaccinia virus mCherry reporter infection, fluorescence; about a quarter of the inactives have no number; 0.63% of 310,000 active; AID 720579; Potency, µM (titrated, usually from 36.5 µM), for the others: at the highest dose activity change, negative = inhibition, hits mostly inhibitors; active = well fitted inhibition curve with a large enough effect; inconclusive = small, poorly fitted or top-dose-only effect; inactive = no such curve, though single readings can be large or run the other way; tested in A549 cells; also: nearly all actives have a fitted effect of over 35% in size; inactives centre near -10
Starred values were filed as active, the others as inactive; i = inactive; ? = inconclusive; . = not tested or not shown; & = joins results of further samples; [ ] = remark or other dose. % is scaled to controls: 0 for no effect and ±100 for the full control effect; potency is read from the fitted curve at half-maximal effect.

| Molecule | VACV Venus inh | VACV mCherry inh |
| --- | --- | --- |
| CCOC(=O)CNc1nnc(SCC(=O)OCC)[nH]c1=O | 9% | . |
| Cc1ccc(NC(=O)Cc2nnc(SCC(=O)Nc3nncs3)n2C)c(C)c1 | -13% | -1% |
| O=C(O)/C=C(\CC(=O)O)C(=O)O | 0% | i |
| N=c1ccn(CC(=O)c2ccc(-c3ccccc3)cc2)cc1 | ? | ? |
| CC(C)(C)c1ccc(OCC(=O)NC(Cc2c[nH]c3ccccc23)C(=O)O)cc1 (configuration not stated) | -9% | -3% |
| O=C(Cn1nc(C(=O)O)c2ccccc2c1=O)Nc1ccc(F)cc1 | 0% | -11% |
| COc1ccc(S(=O)(=O)N2CCC(C(=O)OCC(=O)c3ccccc3)CC2)cc1[N+](=O)[O-] | -12% | i |
| Cc1oc(C)c2c(=O)cc(-c3ccc4c(c3)OCO4)cc(OC(=O)c3ccccc3Cl)c12 | 22% | -3% |
| COc1ccccc1OCCNC(=O)Nc1ccc(Br)cc1 | -15% | -10% |
| COC(=O)c1c(C(=O)OC)c(-c2ccc(Cl)c(Cl)c2)n2c1CCC2 | -19% | ? |
| CC(=O)c1ccc(Nc2cc(C)nc3nc(Cc4ccccc4)nn23)cc1 | -4% | -2% |
| CCN(Cc1ccccc1)C(c1cc2cc(C)ccc2[nH]c1=O)c1nnnn1CCOC (configuration not stated) | -12% | . |
| NC(=O)c1ccc(SCC(=O)OCC(=O)NCc2ccco2)c([N+](=O)[O-])c1 | -12% | -17% |
| COc1ccccc1-c1noc2c1C(=O)N(Cc1cn(-c3ccccc3OC)nn1)CC2 | -3% | 18% |
| CC(=O)OC(C(=O)Nc1nccs1)c1ccccc1 (configuration not stated) | -10% | -6% |
| CN(C)c1nc(N)nc(N(c2ccccc2)c2ccccc2)n1 | -8% | i |
| NC1=NC2(CCCC2)n2c(nc3ccccc32)N1 | -9% | -4% |
| O=C(Cn1c(O)c(N=NC(=O)c2ccncc2)c2ccccc21)Nc1ccccc1 | -2% | -4% |
| Cc1cc(O)c(Sc2ncn[nH]2)cc1NS(=O)(=O)c1ccc(Cl)cc1 | -16% | -27% |
| Cc1nnc(SCC(=O)NCc2ccccc2F)c2nn(-c3ccc(Cl)cc3)c(C)c12 | -19% | ? |
| Cn1cc(S(=O)(=O)Nc2ccc(Br)cc2F)c(=O)n(C)c1=O | -1% | i |
| Cn1cc(Br)c(C(=O)N/N=C/c2cccc(OC3CSC3)c2)n1 | -7% | i |
| CCOc1ccccc1N1CCN(S(=O)(=O)c2cc(C)ccc2OC)CC1 | -13% | -9% |
| CCCCN(C=O)c1c(CC)nc2c(OCc3cc(Cl)cc(Cl)c3)cccn12 | -26% | -26% |

The closing 3 entries of the part before open the next one:
| Molecule | VACV Venus inh | VACV mCherry inh |
| --- | --- | --- |
| Cn1cc(Br)c(C(=O)N/N=C/c2cccc(OC3CSC3)c2)n1 | -7% | i |
| CCOc1ccccc1N1CCN(S(=O)(=O)c2cc(C)ccc2OC)CC1 | -13% | -9% |
| CCCCN(C=O)c1c(CC)nc2c(OCc3cc(Cl)cc(Cl)c3)cccn12 | -26% | -26% |
| COC(=O)c1cc2c(C)[nH]c(C)c2cc(C(=O)OC)c1=O | 0% | i |
| Cc1c(C(=O)N2CCC(C)CC2)c(S(=O)(=O)N2CCN(c3cccc(Cl)c3)CC2)c(C)n1C | -7% | -10% |
| CCC1CN(CCNC(=O)c2cc(C)nn2CC)Cc2cc(OC)ccc2O1 (configuration not stated) | -10% | -9% |
| CC(C)CN(CCNC(=O)CC1Oc2ccccc2NC1=O)CC(C)C (configuration not stated) | -14% | i |
| COc1ccc(C2=C(C)C(=O)N(Cc3ccc(C(=O)NCc4cccc(C)c4)cc3)S2(=O)=O)cc1 | -25% | -18% |
| CC1=NC(C)(C)Cc2cc(C)c(C)cc21 | -7% | -12% |
| C#CCN(C[C@H]1[C@H](OC(=O)NCc2ccccc2F)[C@H](OC(=O)NCc2ccccc2F)C[C@@H](C(=O)OC)[C@H]1C(=O)OC)S(=O)(=O)c1ccc(C)cc1 | -20% | ? |
| CCCN1C(C(=O)c2ccccc2)=C(OC(=O)c2ccc(OC)cc2)c2ccccc2S1(=O)=O | -29% | ? |
| O=C(Nc1ccc(N2CCOCC2)c(Cl)c1)c1ccc(Cl)cc1 | 6% | -9% |
| CCOC(=O)C1CCCN(C(=O)c2ccc(F)c(Cl)c2)CC1 (configuration not stated) | 9% | 59%[activator] |
| O=C(COc1ccc(Cl)cc1)NNC(=O)c1ccc2c(=O)n3c(nc2c1)CCC3 | 2% | -12% |
| Cc1ccccc1CN1CCN(CC(=O)NCc2ccccc2)C1=O | -7% | -11% |
| Cc1ccc(-c2nnc(N(C)C(=O)c3cccnc3)s2)cn1 | 5% | -6% |
| CC(C)(C)NC(=O)C1c2ccccc2OCC(=O)N1CCc1ccccc1 (configuration not stated) | 8% | 16% |
| O=C(NCC1CCCO1)C(=O)NCC(c1ccco1)N1CCN(c2ccccc2)CC1 (configuration not stated) | -1% | -1% |
| CCCc1ccc(S(=O)(=O)N2CCN(C(=O)CN3C(=O)NC(C)(C4CC4)C3=O)CC2)cc1 (configuration not stated) | -20% | -4% |
| CCn1c(-c2cccnc2)nc2cc(NC(=O)COC)cc(C(=O)N3CCc4ccccc4C3)c21 | -7% | -12% |
| O=C1NC(c2ccccc2)Oc2ccccc21 (configuration not stated) | -13% | -24% |
| CC(C)NC(=O)COC(=O)c1cncc(Br)c1 | 5% | i |
| COc1ccc(-n2c(CNC(=O)c3cccc4ccccc34)nnc2SC)cc1 | -15% | -3% |
| COc1ccc2[nH]c3c(=O)n(CCCCCC(=O)NCCC(C)C)c(=S)[nH]c3c2c1 | -7% | -3% |
| Cc1cc(C)c(C(=O)C(C)OC(=O)C2=COCCO2)cc1C (configuration not stated) | -11% | -5% |
| c1ccc(Cn2ncc3c(N4CCN(c5ccccc5)CC4)ncnc32)cc1 | -21% | 2% |
| Cc1[nH]n(-c2ccccc2)c(=O)c1C(c1ccc(O)c([N+](=O)[O-])c1)c1c(C)[nH]n(-c2ccccc2)c1=O | -25% | -4% |
| CC1O[C@@H](OC2C(O)C(O)C(CO)O[C@H]2OC2C[C@]3(C)C(CC(O)C4[C@@H]([C@]5(C)CC[C@@H](C(C)(C)O)O5)CC[C@]43C)[C@@]3(C)CCC(O)C(C)(C)C23)C(O)C(O)C1O (some centres not stated) | -7% | -3% |
| CCOC(=O)C1(CC2CCCCO2)CCN(Cc2ccc(OC)cc2F)CC1 (configuration not stated) | -7% | -12% |
| O=c1oc2ccccc2c(N2CCCCC2)c1[N+](=O)[O-] | -5% | i |
| COc1cccc(N2CCN(C(=O)CNC(=O)c3sc4ccccc4c3Cl)CC2)c1 | -25% | -4% |
| COCCCNS(=O)(=O)c1ccc2c3c(cccc13)C(=O)S2 | -18% | . |
| O=C(C1CC1)N1CCN(c2nc3ccccc3s2)CC1 | 0% | -3% |
| C/C(=N/Nc1ccccc1C(=O)O)c1cccs1 | -21% | -4% |
| Cc1cc(Br)cc(C)c1NC(=O)c1ccccc1[N+](=O)[O-] | -5% | -10% |
| CC1=C(C(=O)N2CCOCC2)C(c2cc(C)cs2)NC(=O)N1 (configuration not stated) | -14% | -13% |
| CCOC(=O)C1=C(c2ccccc2)N=C2SCC(=O)N2C1c1ccc(OCC)c(OCC)c1 (configuration not stated) | -10% | -4% |
| CCCOc1ccc(N2CC(C(=O)Nc3ccccc3OC)CC2=O)cc1 (configuration not stated) | 4% | -5% |
| Cc1ccc(C(=O)OCC(=O)c2cc(C)n(CC3CCCO3)c2C)cc1 (configuration not stated) | -15% | i |
| COc1ccc(C2Nc3ccccc3C(=O)N2O)cc1OC (configuration not stated) | -21% | -16% |
| Cc1cc(Cl)ccc1C(O)c1ncc(-c2ccccc2C(F)(F)F)[nH]1 (configuration not stated) | -24% | ? |
| O=C(OCc1c(F)cccc1Cl)c1cccc(S(=O)(=O)N2CCOCC2)c1 | -16% | ? |
| CCc1ccc(NC(=O)CN2C(=O)CSc3ccc(S(=O)(=O)N(C)C)cc32)cc1 | -5% | -9% |
| O=C(N/N=C/c1ccc[nH]1)c1cc(-c2cccs2)nc2ccccc12 | -16% | -23% |
| COc1ccccc1/C=N/NC(=O)C(=O)Nc1ccccc1OC(F)(F)C(F)F | 14% | -6% |
| CC(C)OC(=O)[C@H]1[C@H](c2ccc(Cl)cc2)[C@@](C#N)(C(N)=O)[C@@H]2C=CC(C(N)=O)=CN21 | -7% | . |
| Cn1c(CC(O)c2nc3ccccc3n2C)nc2ccccc21 (configuration not stated) | -16% | -10% |
| COc1ccc(C(=O)Nc2ccc(OCc3cc(=O)n4ccccc4n3)cc2)cc1 | -7%[7.34 µM] | -14%[7.34 µM] |
| CCCC(=O)Nc1cc(C(=O)O)ccc1S(=O)(=O)c1ccc(C)cc1 | 1% | -14% |
| CCc1noc(C)c1C(=O)OCC(=O)c1ccccc1OC | -17% | -26% |
| CCN(C(=O)CSc1nnc(C)n1-c1ccccc1)C1CCS(=O)(=O)C1 (configuration not stated) | -6% | 6% |
| COc1ccc(-c2n[nH]c(=S)n2C2CCCCC2)cc1 | -19% | 0%[1.46 µM] |
| COc1ccc(-c2nnc3ccc(SC)nn23)cc1 | -7% | -15% |
| COc1ccc(CC(=O)Oc2ccccc2C)cc1S(=O)(=O)N1CCOCC1 | -13% | -13% |
| COc1cccc(-c2nn(C)c3sc(C(=O)NCc4ccc(C)cc4)cc23)c1 | 0%&-15% | -7%&-5% |
| COc1ccc(NC(=O)CSc2oc(-c3ccco3)nc2S(=O)(=O)c2ccc(Br)cc2)c(OC)c1 | -5% | -9% |
| O=C1[C@H]2[C@@H](c3ccc(C(F)(F)F)cc3)N[C@]3(CCCN(Cc4ccc(F)cc4)C3=O)[C@H]2C(=O)N1Cc1ccccc1 | -23% | -10% |
| Cc1cc(C)cc(OC(=O)CCN2C(=O)C3C4C=CC(C5CC45)C3C2=O)c1 (configuration not stated) | -7% | -2% |
| CCC(C)[C@@H](C(=O)Nc1ccc(OC)c(OC)c1)N1Cc2ccccc2C1=O (some centres not stated) | 1% | i |

Following part:
| Molecule | VACV Venus inh | VACV mCherry inh |
| --- | --- | --- |
| CCc1c(C)nc2ccc(Br)cc2c1SCCC#N | -4% | i |
| CCn1c(=N)c(C(=O)NC2CCCC2)cc2c(=O)n3ccccc3nc21 | -5% | 2% |
| CC1=C(C(=O)N2CCOCC2)CC(CC(=O)NCc2ccco2)C(=O)N1Cc1ccc(C(C)(C)C)cc1 (configuration not stated) | -15% | -4% |
| C=CCn1c(SCC(=O)NC(=O)c2cccn2C)nc2ccccc2c1=O | -16% | -14% |
| O=C(NCc1ccncc1)C1=NN(c2ccccc2)C(=O)CC1 | 10% | i |
| COc1ccc(NC(=O)C2(C)Cc3c(-c4ccc5c(c4)OCO5)ccnc3O2)cc1 (configuration not stated) | ? | -9% |
| CCS(=O)(=O)Nc1cc(-c2nc3cccnc3s2)ccc1C | -14% | 17% |
| O=C(/C=C/c1ccccc1)OC1CC(O)C2(O)C=CO[C@@H](OC3OC(CO)C(O)C(O)C3O)C12 (some centres not stated) | -11% | -18% |

Compounds above that have a CF3 group, in the order listed:
| Molecule | VACV Venus inh | VACV mCherry inh |
| --- | --- | --- |
| Cc1cc(Cl)ccc1C(O)c1ncc(-c2ccccc2C(F)(F)F)[nH]1 (configuration not stated) | -24% | ? |
| O=C1[C@H]2[C@@H](c3ccc(C(F)(F)F)cc3)N[C@]3(CCCN(Cc4ccc(F)cc4)C3=O)[C@H]2C(=O)N1Cc1ccccc1 | -23% | -10% |

New compounds follow:
| Molecule | VACV Venus inh | VACV mCherry inh |
| --- | --- | --- |
| CCOC(=O)CSc1nc2sccc2c(=O)[nH]1 | -11% | i |
| O=C(NCCNC(=O)c1ccccc1[N+](=O)[O-])c1ccccc1[N+](=O)[O-] | -9% | -2% |
| O=C(COc1ccccc1)NCC1COc2ccccc2O1 (configuration not stated) | -12% | -2% |
| COc1ccc(S(=O)(=O)N(C)C)cc1NC(=O)CCNC(=O)c1ccco1 | 2% | 7% |
| O=C(NCCCNCc1ccccc1)c1ccccn1 | -9% | i |
| COC(CNC(=O)c1ccc(N2CCc3ccccc32)c([N+](=O)[O-])c1)OC | -14% | -6% |
| COc1cc(C(=O)Nc2ccc(S(=O)(=O)Nc3cc(C)nc(C)n3)cc2)cc(OC)c1OC | -5% | 0% |
| COc1cccc(NC(=O)C2CC(=O)N/C(=N/NC(=O)c3ccc(C)cc3)S2)c1 (configuration not stated) | -3% | -17% |
| Cc1nc2nc(C)c(CCC(=O)NC(C)c3ccc4c(c3)OCCO4)c(C)n2n1 (configuration not stated) | -6% | -7% |
| O=C(CSC1=NS(=O)(=O)c2cc(F)ccc2N1)Nc1ccc(F)cc1 | -10% | i |
| Cc1ccc(C(C)C)c(OCCSc2nc(-c3ccccc3F)nc3cc(=O)[nH]n23)c1 | -5% | i |
| O=C(N/N=C/c1cccnc1)c1ccccc1Br | -2% | -4% |
| COc1ccc2[nH]c(C)c(CCN(Cc3cccs3)C(=S)Nc3cccc(F)c3)c2c1 | -18% | ? |
| Cc1ccc(C)c(S(=O)(=O)N2CCN(C(=O)CCCc3c[nH]c4ccccc34)CC2)c1 | -27% | -18% |
| COc1ccccc1-n1nnnc1SCC(=O)Nc1oc(C)c2c(C)n[nH]c(=O)c12 | -8% | -10% |
| O=C1Nc2ccc(Br)cc2/C1=N\N=C\C1=C(N2CCOCC2)C(=C/c2ccccc2)/CC1 | 6% | -19% |
| COc1cc(NC(=O)COc2ccc(-n3ccnc3)cc2)cc(OC)c1 | -11% | -1% |
| O=C(Nc1ccc(-c2nnc3n2CCCCC3)cc1)c1cnccn1 | -15% | -18% |
| COc1ccc(C(=O)NCc2ccccn2)cc1 | ? | -14% |

Screening data deposited in PubChem BioAssay by National Center for Advancing Translational Sciences (NCATS).
